RE007 growth inh: less growth of the S. pombe RE007 Vpr strain | 360,000 tested, 0.21% active | Potency, µM (highest dose often 92.2 µM), without a hit: top-dose activity change, negative = less growth | S. pombe RE007 Vpr strain, BacTiter-Glo ATP luminescence, 24 h; control for the full effect not named in the record | AID 651644; active = well fitted falling curve with a large enough effect; inconclusive = small, poorly fitted or top-dose-only effect; inactive = no such curve, though single readings can be large or run the other way;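 further: on the % scale 0 is the no-effect control and ±100 the full control effect; nearly all actives have a fitted effect of over 50% in size; the assay follows cell death caused by Vpr and the record does not say whether a fall means rescue or toxicity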
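Fission yeast strain RE007, carrying one chromosomally integrated HIV-1 vpr copy, was seeded at OD 0.01 in PMG+AL medium with 23 nL pinned compound. After 24 h at 30 °C and 99% humidity, viability was read by BacTiter-Glo luminescence.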
SARS PLpro yeast: SARS-CoV PLP inhibition in yeast. 330,000 tested, 0.19% active. Potency, µM (doses to about 32.9 µM), inactives show top-dose activity, positive = growth rescue. S. cerevisiae expressing SARS-CoV PLpro, growth rescue; control for the full effect not named in the record; further: 0% is about no effect; nearly all actives have a fitted effect of over 55% in size; growth read by luminescence after 48 h
Cruzain Triton: inhibitors of Trypanosoma cruzi cruzain with detergent; Potency, µM, for inactives: max response, negative = inhibition, actives largely listed as inhibitors; P25779; AID 1478; purified cruzain, Z-FR-AMC fluorescence, 0.01% Triton; 200,000 tested, 0.43% active; active means well fitted curve in the direction sought with a large enough effect; inconclusive means small, poorly fitted or top-dose-only effect, or another doubt; inactive means no such curve, though single readings can be large; an effect the other way counts as inactive or inconclusive;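 further: plate controls were neutral wells for no effect and buffer without enzyme for full effect; nearly all actives have a fitted effect of over 40% in size; top concentration of the series not given in the record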
Target sequence (P25779 123-467 limits assumed): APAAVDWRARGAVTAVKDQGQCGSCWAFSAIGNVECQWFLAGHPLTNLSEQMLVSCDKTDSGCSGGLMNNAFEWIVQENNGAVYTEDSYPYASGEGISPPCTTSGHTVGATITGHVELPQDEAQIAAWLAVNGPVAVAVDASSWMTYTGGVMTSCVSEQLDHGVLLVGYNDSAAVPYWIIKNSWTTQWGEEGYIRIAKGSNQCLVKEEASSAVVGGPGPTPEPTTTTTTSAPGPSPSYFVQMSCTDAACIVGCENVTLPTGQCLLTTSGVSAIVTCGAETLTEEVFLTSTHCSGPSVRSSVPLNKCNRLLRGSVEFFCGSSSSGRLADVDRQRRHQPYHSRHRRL
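Cysteine protease activity tested under reducing, mildly acidic conditions (100 mM sodium acetate pH 5.5, 5 mM DTT) plus 0.01% Triton X-100. Cruzain 1.5 nM; substrate Z-FR-AMC 2 uM; 15 min compound preincubation at room temperature.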
NS1 function inh: blocks influenza NS1 protein function; S. cerevisiae slowed by influenza A NS1, growth recovery by OD600; Potency, µM (highest dose often 46.1 µM), without a hit: at the highest dose activity, positive = more growth; 270,000 tested, 0.4% active; AID 2326; further: actives are rising curves; nearly all actives have a fitted effect of over 50% in size
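A cell-based growth assay was used: compounds that relieve NS1-induced slow growth of budding yeast raise OD600. Assay medium was yeast nitrogen base with ammonium sulphate and -URA supplement, pH 6.0, with 2% galactose.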
Cruzain inh noDet: blocks cruzain activity in detergent-free assay. Potency, µM, for the others: max response, negative = inhibition, usual class: inhibitors. P25779. AID 1476. 200,000 tested, 2.3% active. purified cruzain, Z-FR-AMC fluorescence, no detergent; active means well fitted curve in the direction sought with a large enough effect; inconclusive means small, poorly fitted or top-dose-only effect, or another doubt; inactive means no such curve, though single readings can be large; an effect the other way counts as inactive or inconclusive;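 further: plate controls were enzyme without inhibitor for no effect and buffer without enzyme for full effect; nearly all actives have a fitted effect of over 40% in size; top concentration of the series not given in the record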
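Purified cruzain at 1.5 nM, pre-incubated 15 min with compound at room temperature in 100 mM sodium acetate pH 5.5, 5 mM DTT, 0.00005% Triton X-100. Reaction started with 2 uM Z-FR-AMC; AMC fluorescence increase over 60 s gives rate.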
2A StopGo: FMDV 2A StopGo reporter, luciferase signal | human cells with a luciferase reporter of 2A StopGo recoding; control for the full effect not named in the record | Potency, µM (highest dose often 57.9 µM), inactives show top-dose signal change, negative = less light | 410,000 tested, 1.2% active | AID 1159524; active = well fitted falling curve with a large enough effect; inconclusive = small, poorly fitted or top-dose-only effect; inactive = no such curve, though single readings can be large or run the other way; tested in HEK293T cells; further: on the % scale 0 is the no-effect control and ±100 the full control effect; nearly all actives have a fitted effect of over 45% in size; luciferase light after 4 h
MARV entry inh: inhibitors of Marburg virus binding or cell entry; Marburg virus pseudotyped entry inhibition, cell reporter; control for the full effect not named in the record; about a third of the inactives were read at about 46 µM; Potency, µM (top dose mostly 37.8 µM), inactives show top-dose activity change, negative = inhibition, most hits filed as inhibitors; 300,000 tested, 1.8% active; active = well fitted inhibition curve with a large enough effect; inconclusive = small, poorly fitted or top-dose-only effect, or effect the other way; inactive = flat fitted curve, though single readings scatter; tested in HEK293 cells; about a fifth of its hits are not listed in these tables; further: on the % scale 0 is the no-effect control and ±100 the full control effect; luciferase read-out
Lassa entry inh: inhibitors of Lassa virus binding or cell entry; Lassa virus pseudotype entry inhibition, cell reporter; control for the full effect not named in the record; Potency, µM (top dose mostly 37.9 µM), without a hit: at the highest dose activity change, negative = inhibition, hits mostly inhibitors; 300,000 tested, 1.2% active; active means well fitted inhibition curve with a large enough effect; inconclusive means small, poorly fitted or top-dose-only effect, or effect the other way; inactive means flat fitted curve, though single readings scatter; tested in HEK293 cells; further: on the % scale 0 is the no-effect control and ±100 the full control effect; nearly all actives have a fitted effect of over 50% in size; luciferase read-out
* hit, by the source's call; & = joins results of further samples; [ ] = another dose, or the depositor's remark. Unless noted, the call rests on the fitted dose curve; in most records, active means well fitted rising curve with a large enough effect; inconclusive means small, poorly fitted or top-dose-only effect; inactive means no such curve, though single readings can be large or run the other way. Potency means the concentration at half of the fitted maximal effect.

COc1cccc2c1c(NC(=O)c1cc(C)on1)nn2C was read as RE007 growth inh 4%, SARS PLpro yeast -3%, NS1 function inh -5%, 2A StopGo -7%, MARV entry inh 16% and Lassa entry inh 7%.
Screening O=C(NCc1ccccc1F)C(=O)NCC1OCCCN1S(=O)(=O)c1cccs1 (stereo unspecified) returned RE007 growth inh 2%, SARS PLpro yeast 2%, NS1 function inh -3%, 2A StopGo 12%, MARV entry inh 7% and Lassa entry inh -15%.
For COc1cccc(OC)c1C(=O)Nc1ccncc1 the results were RE007 growth inh -8%, 2A StopGo -7%, MARV entry inh -7% and Lassa entry inh inconclusive.
`COCCn1c(N)c(NCc2ccccc2)c(=O)n(CC(=O)Nc2cc(C)ccc2C)c1=O` gave RE007 growth inh 2%, SARS PLpro yeast 7%, Cruzain Triton -1.7%, NS1 function inh -5%, Cruzain inh noDet 11%, 2A StopGo -7%, MARV entry inh -22%&-22% and Lassa entry inh inconclusive.
For COc1ccc(NC(=O)NCCCCc2ccccc2)c(OC)c1 the results were RE007 growth inh 7%, SARS PLpro yeast -5%, NS1 function inh 2% and 2A StopGo -14%.
CCS(=O)(=O)N1CCN(c2ccc(Cl)cc2[N+](=O)[O-])CC1 was read as RE007 growth inh -1%, SARS PLpro yeast 6%, Cruzain Triton -3.8%, NS1 function inh -2%, Cruzain inh noDet 4%, 2A StopGo -26%, MARV entry inh -1% and Lassa entry inh -5%.
COc1ccc(CCNC(=O)/C=C/C(=O)O)cc1 was read as RE007 growth inh -21%, SARS PLpro yeast -3%, NS1 function inh 10%, 2A StopGo 0%, MARV entry inh -4%[46.1 µM] and Lassa entry inh 24%.
`O=c1[nH]c(C2CCN(S(=O)(=O)c3ccc(S(=O)(=O)NC4CC4)cc3)CC2)nc2c1nnn2Cc1cccc(F)c1` gave RE007 growth inh 3%, SARS PLpro yeast 0%, NS1 function inh 28%, 2A StopGo 14%, MARV entry inh inconclusive and Lassa entry inh -3%[46.1 µM].
`CCCCCn1c(SCc2cccc(C)c2)nc2c1c(=O)[nH]c(=O)n2C` gave RE007 growth inh 8%, SARS PLpro yeast 0%, NS1 function inh inconclusive and 2A StopGo -21%.
Screening Cc1[nH]c(C)c(S(=O)(=O)Nc2ccccc2)c1C(=O)N1CCCC1 returned RE007 growth inh 10%, SARS PLpro yeast 2%, NS1 function inh -1%, 2A StopGo 41%[activator], MARV entry inh 2%[46.1 µM] and Lassa entry inh -6%[46.1 µM].
For Cc1ccc(OC(=O)c2cc(=O)c3ccccc3o2)cc1 the results were RE007 growth inh 1%, SARS PLpro yeast 2%, Cruzain Triton -17%, NS1 function inh 21%, Cruzain inh noDet -22%, 2A StopGo -6%, MARV entry inh 20% and Lassa entry inh inconclusive.
Screening COc1ccc(NC(=S)Nc2ccc(F)cc2)c(OC)c1 returned RE007 growth inh 6%, 2A StopGo 17%, MARV entry inh 21% and Lassa entry inh inconclusive.
Screening COc1ccc(C(=O)C2CCCN(Cc3c(F)ccc(F)c3F)C2)c(OC)c1 (stereo unspecified) returned RE007 growth inh 5%, SARS PLpro yeast 3%, NS1 function inh -7%, 2A StopGo -10%, MARV entry inh inconclusive and Lassa entry inh -31%[46.1 µM].
For Cc1ccccc1S(=O)(=O)Cc1ccc(C(=O)NCc2ccccc2)o1 the results were RE007 growth inh 0%, SARS PLpro yeast -2%, NS1 function inh 1%, 2A StopGo -16%, MARV entry inh -21%[46.1 µM] and Lassa entry inh inconclusive.
CCOc1ccc(CN2CCN(C(=O)c3cccc(F)c3)CC2)cc1 was read as RE007 growth inh 1%, SARS PLpro yeast -6%, Cruzain Triton 0.5%, NS1 function inh 4%, Cruzain inh noDet -5%, MARV entry inh inconclusive and Lassa entry inh inconclusive.
`CC(=O)Nc1ccc2[nH]ccc2c1` gave RE007 growth inh -3%, SARS PLpro yeast -4%, NS1 function inh -1% and 2A StopGo 28%.
`Cc1ccc(S(=O)(=O)N(CC(O)Cn2c3ccccc3c3ccccc32)c2cccc(C(N)=O)c2)cc1` (stereo unspecified) gave Cruzain Triton -8.9%, Cruzain inh noDet 3%, 2A StopGo inconclusive, MARV entry inh inconclusive and Lassa entry inh inconclusive.
Screening Fc1ccc(NC(=S)Nc2cc(Cl)ccc2Cl)cc1 returned RE007 growth inh -13%, SARS PLpro yeast 2%, NS1 function inh -11%, 2A StopGo 0%, MARV entry inh 13%[46.1 µM] and Lassa entry inh -3%[46.1 µM].
`CCc1ccc(S(=O)(=O)Nc2c(C)nc3nc[nH]n3c2=O)cc1` gave RE007 growth inh 34%, SARS PLpro yeast -2%, NS1 function inh 15%, 2A StopGo 29%, MARV entry inh 12%[46.1 µM] and Lassa entry inh 19%[46.1 µM].
For COc1cccc(NC(=O)CSCC(=O)O)c1 the results were RE007 growth inh 9%, SARS PLpro yeast -4%, Cruzain Triton 3.5%, NS1 function inh -7%, Cruzain inh noDet -4%, 2A StopGo 7%, MARV entry inh 10% and Lassa entry inh 14%.
For COc1ccccc1CCC(=O)OCC(=O)Nc1ccc(C)c(S(=O)(=O)N2CCCCC2)c1 the results were RE007 growth inh -8%, SARS PLpro yeast 0%, 2A StopGo -15%, MARV entry inh -7% and Lassa entry inh 8%.
CC(C(=O)c1ccc(Cl)cc1Cl)n1cncn1 (stereo unspecified) was read as RE007 growth inh -3%, SARS PLpro yeast 1%, NS1 function inh 0% and 2A StopGo -11%.
Cc1cccn2cc(CCNC(=O)c3ccc(Br)o3)nc12 was read as RE007 growth inh 5%, SARS PLpro yeast 6%, Cruzain Triton 0.6%, NS1 function inh -42%, Cruzain inh noDet -3% and 2A StopGo -20%.
Screening COc1ccc(NC2CCCN(C(=O)CCc3cccc(F)c3)C2)cc1 (stereo unspecified) returned RE007 growth inh -18%, SARS PLpro yeast -2%, NS1 function inh 9%, 2A StopGo -13%, MARV entry inh 8% and Lassa entry inh 10%.
For O=C(Nc1c(C(=O)Nc2ccccc2F)oc2ccccc12)c1cc2ccccc2o1 the results were Cruzain Triton 0.8%, Cruzain inh noDet 2%, 2A StopGo 34%[activator], MARV entry inh 18%[46.1 µM] and Lassa entry inh 15%[46.1 µM].
COC(=O)c1ccccc1S(=O)(=O)C(C)(C)C was read as RE007 growth inh inconclusive, SARS PLpro yeast -12%, Cruzain Triton -0.9%, NS1 function inh 7%, Cruzain inh noDet 4%, 2A StopGo 0%, MARV entry inh 1% and Lassa entry inh 22%.
CCc1ccc(NC(=O)CC2C(=O)N(c3ccc(Cl)cc3)C(=O)N2C2CCCC2)cc1 (stereo unspecified) was read as Cruzain Triton -6.5%, Cruzain inh noDet 0%, 2A StopGo 11% and Lassa entry inh inconclusive.
Cc1ccc(Cc2cnc(NC(=O)C3CCCO3)s2)cc1 (stereo unspecified) was read as RE007 growth inh inconclusive, SARS PLpro yeast 3%, Cruzain Triton -5.5%, NS1 function inh -18%, Cruzain inh noDet 5%, 2A StopGo -19%, MARV entry inh inconclusive and Lassa entry inh inconclusive.
`CC12CCC(=O)C=C1CCCC2=O` (stereo unspecified) gave RE007 growth inh -17%, 2A StopGo -12%, MARV entry inh -1%[46.1 µM] and Lassa entry inh -2%[46.1 µM].
For O=C(O)c1cc2c(cc1NC(=O)c1ccccc1OC(F)F)OCCCO2 the results were RE007 growth inh -7%, SARS PLpro yeast -2%, NS1 function inh -4%, 2A StopGo -9%, MARV entry inh 0%[46.1 µM] and Lassa entry inh 5%.

Next part (two carried over from the part before).
`CC12CCC(=O)C=C1CCCC2=O` (stereo unspecified) gave RE007 growth inh -17%, 2A StopGo -12%, MARV entry inh -1%[46.1 µM] and Lassa entry inh -2%[46.1 µM].
For O=C(O)c1cc2c(cc1NC(=O)c1ccccc1OC(F)F)OCCCO2 the results were RE007 growth inh -7%, SARS PLpro yeast -2%, NS1 function inh -4%, 2A StopGo -9%, MARV entry inh 0%[46.1 µM] and Lassa entry inh 5%.
Screening C=CCNC(=O)/C(=C\c1ccc(Br)cc1)NC(=O)c1ccccc1OC returned RE007 growth inh 31%, SARS PLpro yeast 2%, NS1 function inh -4%, 2A StopGo -8%, MARV entry inh 10%[46.1 µM] and Lassa entry inh 0%.
Screening COc1ccc(NC(=O)c2cccnc2NCCc2ccccc2)cc1 returned RE007 growth inh inconclusive, SARS PLpro yeast 10%, Cruzain Triton -7.4%, NS1 function inh -6%, Cruzain inh noDet -5%, 2A StopGo 0%, MARV entry inh -22% and Lassa entry inh 3%.
Screening COc1ccc(-c2cc3nc(CCl)[nH]c(=O)c3s2)cc1 returned RE007 growth inh -12%, SARS PLpro yeast -10%, NS1 function inh -2%, 2A StopGo 14µM*, MARV entry inh inconclusive and Lassa entry inh inconclusive.
Screening O=C(Cn1nc(-c2ccc(Cl)cc2)c2ccccc2c1=O)Nc1cccnc1 returned RE007 growth inh -15%, SARS PLpro yeast 5%, Cruzain Triton -3.2%, NS1 function inh -2%, Cruzain inh noDet inconclusive, 2A StopGo 0%, MARV entry inh inconclusive and Lassa entry inh -19%.
`CCNC(=S)NNC(=O)c1ccccc1Cl` gave RE007 growth inh 3%, SARS PLpro yeast 9%, Cruzain Triton 1.6%, NS1 function inh 12%, Cruzain inh noDet -1%, 2A StopGo -25%, MARV entry inh 30% and Lassa entry inh -7%.
Screening O=C(CSc1nc(Nc2ccccc2)nc(N2CCOCC2)n1)N1CCc2ccccc21 returned RE007 growth inh -10%, SARS PLpro yeast 3%, Cruzain Triton 3.5%, NS1 function inh -37%, Cruzain inh noDet inconclusive, 2A StopGo inconclusive, MARV entry inh inconclusive and Lassa entry inh -24%.
For CCN(Cc1ccccc1)C(=O)c1[nH]c2ccc(OC)cc2c1C the results were RE007 growth inh 4%, SARS PLpro yeast 0%, NS1 function inh -8%, 2A StopGo 23%, MARV entry inh 1%[46.1 µM] and Lassa entry inh -44%[46.1 µM].
Screening CCCCCC(=O)Nc1c2c(nc3ccccc13)CCC2 returned RE007 growth inh -3%, SARS PLpro yeast 3%, NS1 function inh -17% and 2A StopGo -10%.

Screening data: PubChem BioAssay, National Center for Advancing Translational Sciences (NCATS)
